VDR inhibitor: inhibitors of human vitamin D receptor; P11473; VDR-SRC2-3 peptide fluorescence polarization, 2 h; Potency, µM, for inactives: max response, negative = inhibition, hits mostly inhibitors; hit rate 0.93% among 400,000; AID 504847; active means well fitted inhibition curve with a large enough effect; inconclusive means small, poorly fitted or top-dose-only effect, or another doubt; inactive means no such curve, though single readings can be large or run the other way; further: series mostly up to about 120 µM
Target sequence (P11473 whole entry, looked up): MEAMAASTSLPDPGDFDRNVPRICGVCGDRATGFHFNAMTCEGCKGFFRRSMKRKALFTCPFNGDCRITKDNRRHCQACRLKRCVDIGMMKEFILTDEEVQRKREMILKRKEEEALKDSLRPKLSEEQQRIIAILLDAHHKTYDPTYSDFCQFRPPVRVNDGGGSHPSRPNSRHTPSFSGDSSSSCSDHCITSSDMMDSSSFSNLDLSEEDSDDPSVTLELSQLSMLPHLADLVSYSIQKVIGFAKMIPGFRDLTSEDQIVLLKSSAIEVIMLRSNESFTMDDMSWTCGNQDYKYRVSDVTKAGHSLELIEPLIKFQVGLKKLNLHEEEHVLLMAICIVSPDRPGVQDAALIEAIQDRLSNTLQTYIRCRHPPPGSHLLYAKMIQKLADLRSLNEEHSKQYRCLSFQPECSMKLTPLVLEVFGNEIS
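The screen uses fluorescence polarization to detect compounds that interfere with recruitment of the SRC2-3 coactivator peptide to VDR; plates are read after 2 h at room temperature.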
* hit, by the source's call; u = inconclusive; & = joins results of further samples; [ ] = another dose, or the depositor's remark. On the % scale 0 is the no-effect control and ±100 the full control effect; potency means the concentration at half of the fitted maximal effect. Some of the compounds tested, so the mix of outcomes need not match the whole.

SMILES	VDR inhibitor
O=C(NCc1ccc2c(c1)OCO2)C(=O)NC1CCCCC1	-8%
Cc1ccc(S(=O)(=O)Nn2cnnc2)cc1	-14%
O=C(CCCCC(=O)NCc1cccs1)NCc1cccs1	7%
COc1cc(NC(=O)c2ccc(Cl)cc2Cl)ccc1-c1cc2ccccc2oc1=O	0%
N#C/C(=C\c1ccc(-c2ccccc2Cl)o1)C(=O)Nc1nc2ccccc2s1	-16%
COc1ccccc1Nc1ncc(C(=O)N2CCC(C(N)=O)CC2)c2ccccc12	6%
CC(=O)Nc1ccc(NC(=O)C(C)OC(=O)c2c(C)nn(-c3ccccc3)c2Cl)cc1 (centres undefined)	5%
COc1ccc(C(=O)NNC(=O)C(=O)N2CCCCC2)cc1OC	-5%
Cc1ccccc1S(=O)(=O)NC(=NCc1ccc(F)cc1)c1ccccc1	-19%
CCOC(=O)c1c(NC(=O)c2ccc(N3C(=O)C4C5C=CC(C5)C4C3=O)cc2)sc2c1CCCC2 (centres undefined)	-12%
CSc1ncc(Cl)c(C(=O)N(Cc2ccc(N(C)C)cc2)Cc2ccco2)n1	15%
COc1ccc2nc(N3CCOCC3)cc(C)c2c1	-11%
COC(=O)[C@H](C)N(Cc1ccc(Cl)c(Cl)c1)S(=O)(=O)CCNC1CCCC1	-3%
COc1cc(N=c2c([N+](=O)[O-])nn(-c3ccc4c(c3)OCCO4)n2O)cc(OC)c1	-4%
COc1ccc2oc(=O)c(C(=O)Nc3ccccc3O)cc2c1	-15%
COc1ccc(/C=C/C(=O)Nc2ccccc2Cl)cc1S(=O)(=O)N1CCOCC1	-12%
c1cc2c(cc1CN1CCN(C3CCCCCC3)CC1)OCO2	22%
O=C(Nc1ccc2oc(-c3cccnc3)nc2c1)c1ccc(-c2cccc(OC(F)(F)F)c2)o1	-20%
OCC1(Cc2cccc(C(F)(F)F)c2)CCN(Cc2cc(F)cc(F)c2)CC1	2%
Cc1ccc(C(c2sc3nc(C)nn3c2O)N2CCN(c3ccccc3F)CC2)cc1 (centres undefined)	-6%
O=Cc1ccc(N2N=C(c3ccccc3)CC2c2ccccc2)cc1 (centres undefined)	17%
O=C(Cn1cnc2ccccc2c1=O)NCC1COc2ccccc2O1 (centres undefined)	19%
CCc1cc2c(=O)c(-c3ccc4c(c3)OCCO4)coc2cc1OS(C)(=O)=O	4%
Cc1cccc(C)c1Nc1nnc(SCC(=O)Nc2cc(S(=O)(=O)N3CCCCC3)ccc2Cl)s1	5%
CN1/C(=C\C(=O)Nc2ccc(F)cc2)C(C)(C)c2ccccc21	1%
COC(=O)c1c(NC(=O)/C=C/C(=O)O)sc(Cc2ccccc2)c1C	u
C=CCNCCCCOc1ccc(C)cc1[N+](=O)[O-]	-20%
C[C@@H](NC(=O)[C@@H]1Cc2ccccc2CN1C(=O)OC(C)(C)C)C(=O)NCc1ccco1	5%
CCc1ccc(OCc2nnc(SCc3ccc(C(=O)O)cc3)o2)cc1	-11%
COC(=O)C1=C(C)N(Cc2ccc(C)cc2)C(=O)/C1=C\c1cc(OC)c(OC)c(OC)c1	50µM*
CC(C)(C)Sc1ccc2nc3c(n2c1)CCCC3	-18%
O=C1NC(Cc2c[nH]c3ccccc23)C(=O)N1CCOc1ccc(F)cc1 (centres undefined)	-5%
CCOC(=O)Oc1ccc(/C=C2\N=C(C)OC2=O)cc1	20µM*
O=C(Cc1ccc(Cl)cc1)NNC(=S)NC(=O)c1cccs1	-10%
O=C(Nc1ccccc1)c1ccc(=O)n(Cc2cccc(Cl)c2)c1	-5%
COc1ccc(C(CNC(=O)COc2ccccc2C)N2CCCCC2)cc1 (centres undefined)	-5%
COc1ccc(-c2c3c(=O)n(C)c(=O)n(C)c3cn2-c2ccc(O)cc2)cc1	-8%
COc1ccc(-n2c(Cc3cccn3C)nnc2SCC(N)=O)cc1	-17%
CCOC(=O)N1CCN(C(=O)CN(c2ccccc2F)S(=O)(=O)c2ccc(C)cc2)CC1	1%
COc1ccc(OC)c(N(CC(=O)N2CCc3ccccc3C2)S(C)(=O)=O)c1	7%
Fc1cccc(NC(=S)NCCCN2CCOCC2)c1	-20%
CC(C)C(=O)c1cc2c(cc1NC(=O)c1ccccc1F)OCCO2	10%
CC1CCN(C2CCN(S(=O)(=O)c3ccc(C(F)(F)F)cc3)CC2)CC1	-19%
Cc1nn(-c2ccc(Cl)cc2)c2[nH]c(=O)c(CNCc3ccc4c(c3)OCO4)cc12	9%
Nc1cc(Cl)ccc1C(=O)OCC(=O)NC(=O)NCc1ccccc1	-2%
O=C(O)/C=C\C(=O)Nc1ccccc1C#Cc1ccccc1	-2%
O=C(Nc1nc2ccccc2n1CCOc1ccccc1)c1ccco1	-13%
CC(C)c1ccc(-c2nnc(N)s2)cc1	-1%
CCCSc1ccc2nc(NC(=O)OC)[nH]c2c1	-7%&6%
Cc1ccc(S(=O)(=O)NC(=O)N2CCCC(C)(C)C2)cc1	12%
CS(=O)(=O)c1ccc2nc(NC(=O)CN3CCN(Cc4ccccc4)CC3)sc2c1	-7%
CCCn1c(N)c(C(=O)CN(C)CC(=O)Nc2c(Cl)cccc2Cl)c(=O)[nH]c1=O	-14%
CCC(C)(C)NC(=O)C(c1cccc(OC)c1OC)N(CC(C)C)C(=O)CCC(=O)Nc1cc(C)on1 (centres undefined)	u
Cc1cc(C)cc(NC(=O)CCCc2nnc3n(CC(C)C)c(=O)c4sccc4n23)c1	8%
CC1=C(C)/C(=N\OS(=O)(=O)c2ccc(C)cc2)C=CC1=O	28µM*
NC(=O)N/N=C/CCc1ccccc1	9%
CN(NC(=O)c1ccccc1)C1=NS(=O)(=O)c2ccccc21	-8%
CCOc1ccc(N/N=C(/C#N)C(N)=O)cc1	-13%
COc1ccc(Cc2noc(CN3CCN(Cc4csc(C)n4)CC3)n2)cc1OC	-5%
CCS(=O)(=O)Nc1ccc(C2=NN(C(=O)c3ccco3)C(c3ccco3)C2)cc1 (centres undefined)	-22%
(continued)
SMILES	VDR inhibitor
S=c1[nH]nc(-c2ccccc2Cl)n1Cc1ccccc1	5%
CC(C)(C)Cc1nnc(NC(=O)CCC2CCCCC2)s1	-17%
O=C(COC(=O)C1CCN(C(=O)c2ccc(Cl)cc2)CC1)NC1CCS(=O)(=O)C1 (centres undefined)	22%
CN(CC(=O)Nc1ccccc1Cl)C(=O)Cn1nnc(-c2ccc(F)cc2)n1	-4%
O=C(NCc1cccc(C(F)(F)F)c1)c1cccc(S(=O)(=O)NCc2ccccc2)c1	-2%
CC1Cc2ccccc2N1C(=O)COC(=O)c1n[nH]c(=O)c2ccccc12 (centres undefined)	-9%
Cc1ccccc1Cn1nc(C)c(NC(=O)c2cc3n(n2)C(C(F)F)CC(C(F)F)N3)c1C (centres undefined)	-5%
COc1ccc(C2CC(=O)Oc3cc(C)c(Cl)cc32)cc1 (centres undefined)	2%&1%
CC1(c2nnc(-c3ccc(Cl)cc3)o2)CC(c2ccncc2)=NO1 (centres undefined)	-4%
COc1ccc(OC)c([C@@H]2OCCC=C[C@H]2C)c1	7%
COc1ccc(Cn2ccc3nc(C)c(C(=O)N4CCN(c5ccc(F)cc5)CC4)cc3c2=O)cc1	5%
CCC1CN(C(=O)N2CCC(C(=O)NCc3cccs3)CC2)c2cc(C)ccc2O1 (centres undefined)	8%
COc1cccc(/C=C2/Sc3ccc(C(=O)NCCN4CCCCCC4)cc3NC2=O)c1	13%
CC(=O)Nc1cccc(C(=O)NCC2(N3CCCCC3)CCCCC2)c1	-22%
O=C(CCSCc1ccc(Cl)cc1)NCc1cccnc1	1%
COc1ccc(NC(=O)c2cc(S(=O)(=O)N3CCCCCC3)cn2C)c(OC)c1	13%
O=C(CCc1nc(-c2ccccc2F)no1)NCc1ccco1	6%
COc1ccccc1N1CCN(c2nc3c(S(=O)(=O)c4ccc(C)c(C)c4)nnn3c3ccc(Cl)cc23)CC1	1%
CC12CCC(=O)N1C(C(=O)NCCN1C(=O)S/C(=C\c3ccccc3Cl)C1=O)CS2 (centres undefined)	-29%
COc1ccc(-n2c(N)c(C(=O)NCc3ccco3)c3nc4ccccc4nc32)cc1	-21%
O=C(CCN1CCN(C(=O)c2ccco2)CC1)Nc1ccc(F)cc1	-2%
O=C1C(=O)N(Cc2cccnc2)C(c2ccccn2)/C1=C(/O)c1ccc(F)cc1 (centres undefined)	-2%
COc1ccc(CN(C)CC(=O)Nc2cccc(S(=O)(=O)N(C)c3ccccc3)c2)c(OC)c1	-10%
Cc1cc(F)ccc1NC(=O)C1CCN(C(=O)Nc2ccccc2)CC1	-7%

A portion from further up, for reference:
SMILES	VDR inhibitor
COc1ccc(CN(C)CC(=O)Nc2cccc(S(=O)(=O)N(C)c3ccccc3)c2)c(OC)c1	-10%
Cc1cc(F)ccc1NC(=O)C1CCN(C(=O)Nc2ccccc2)CC1	-7%

Next section
SMILES	VDR inhibitor
COc1ccc(COC(=O)NC(C(=O)O)c2ccccc2)cc1 (centres undefined)	-4%
O=C(N/N=C/c1ccc[nH]1)c1cc2ccccc2cc1O	-10%
Cc1cccc(C)c1NC(=S)NC(C)(C)CO	7%
O=C(NCc1ccco1)c1ccccc1NS(=O)(=O)c1ccc(Cl)s1	-26%
Cc1ccc(N2CCN(/N=C/c3ccncc3)CC2)cc1	2%
CCOc1ccccc1NC(=O)CSc1nnc2ccc(-c3ccncc3)nn12	-6%
O=S(=O)(NCc1ccccc1)c1cccc(S(=O)(=O)N2CCOCC2)c1	11%
CSc1ccccc1C(=O)Nc1ccccc1C(=O)N1CCCC1	5%
CCOc1cc(C2c3c(-c4ccccc4O)n[nH]c3C(=O)N2CCc2ccccc2)ccc1O (centres undefined)	10%
CCOC(=O)c1cc2sc(C)cc2n1C(C)C(=O)OCC (centres undefined)	-11%
Cc1nnc(NC(=O)CSc2nc3ccccc3[nH]2)s1	13%
CNC(=O)CSc1nnc(-c2ccco2)n1-c1ccc(C)cc1	8%
Cc1ccc(C(=O)N[C@H](C(=O)OCc2nnc(-c3ccccc3)o2)C(C)C)cc1	21%
CC(C)CN1CCNC(=O)C1CC(=O)N(C)CC1CCOCC1 (centres undefined)	3%
C=CCSc1nnc(-c2ccncc2)n1-c1ccc(OCC)cc1	-19%
COc1ccc(NC(=O)CN2C(=O)CCc3cc(S(=O)(=O)N4CCOCC4)ccc32)c(OC)c1	-6%
N=c1sccn1CC(=O)Nc1ccccc1Sc1ccccc1	-10%
Cc1ccc(NC(=O)/C(C#N)=C/c2ccc(Sc3nc(C)cc(C)n3)o2)cc1	-3%
O=C(C1CCC(CNc2nc(=S)[nH]c3ccccc23)CC1)N1CCN(c2ccccn2)CC1 (centres undefined)	-5%
OC(C#CCN1CCCCCC1)(c1ccccc1)c1cccnc1 (centres undefined)	15%
[O-]c1n[n+](-c2ccc(Cl)cc2Cl)cc2ccccc12	12%
COC(=O)c1ccc(NC(=O)COC(=O)c2cccc3c(=O)c(C)c(-c4ccccc4)oc23)cc1	-5%
CCOc1cc(Br)cc(C(c2c(C(=O)O)[nH]c3ccccc23)c2c(C(=O)O)[nH]c3ccccc23)c1O	u
O=C1OCc2cc(NC(=O)C3CCCCC3)ccc21	3%
COc1ccc(C(C(=O)NC2CCCC2)N(CCN(C)C)C(=O)c2snc(C(N)=O)c2N)cc1 (centres undefined)	-11%
COC(=O)c1cc2oc3ccccc3c2n1Cc1cc(C)ccc1C	12%
CCC/C(=N\NC(=O)c1ccc(CSc2nncn2C)cc1)c1ccccc1	-19%
C=CCN(CC=C)S(=O)(=O)c1ccc2nsnc2c1	-30%
COc1ccccc1NC(=O)CCS(=O)(=O)c1ccc2c(c1)NC(=O)C(C)S2 (centres undefined)	-6%
Cn1cnnc1SCC(=O)Nc1ccc2c(c1)CCC2	11%
CCC(=O)N1CCN=C1SCc1cccc(F)c1	-6%
CC(=O)N1CCN(C(=O)c2ccc(C)c(S(=O)(=O)N3CCCCC3)c2)CC1	15%
CCCOc1ccc(C2CC(=O)Nc3c2c(=O)n(C)c(=O)n3C)cc1OC (centres undefined)	-7%
CCc1nc(NCC(C)C)c(C#N)c2c1COC(C)(C)C2	3%
CCOC(=O)N1C(=O)[C@@](c2ccc(Cl)cc2)(C(C)C)N1C(=O)OCC	u
Cc1coc2c1c(C)cc1oc(=O)c(CC(=O)N[C@@H](CC(C)C)C(=O)O)c(C)c12	31%[activator]
O=C(CSC1=NNC(c2ccccn2)S1)Nc1ccccc1 (centres undefined)	-12%
CCOC(=O)c1nc2nc(-c3cccs3)cc(C(F)(F)F)n2n1	-2%
COc1cc(CN2CCC(C(=O)NC3CCCC3)CC2)cc(Br)c1O	10%
CN(CCOc1ccc(Br)cc1)CC(O)COc1ccc(C#N)cc1 (centres undefined)	7%
O=C(CN1C(=O)c2cccc3cccc1c23)N1CCN(c2ccccc2)CC1	19%

Compounds listed so far containing an aryl thioether with sulfur outside any ring (15):
SMILES	VDR inhibitor
CSc1ncc(Cl)c(C(=O)N(Cc2ccc(N(C)C)cc2)Cc2ccco2)n1	15%
Cc1cccc(C)c1Nc1nnc(SCC(=O)Nc2cc(S(=O)(=O)N3CCCCC3)ccc2Cl)s1	5%
CCc1ccc(OCc2nnc(SCc3ccc(C(=O)O)cc3)o2)cc1	-11%
CC(C)(C)Sc1ccc2nc3c(n2c1)CCCC3	-18%
COc1ccc(-n2c(Cc3cccn3C)nnc2SCC(N)=O)cc1	-17%
CCCSc1ccc2nc(NC(=O)OC)[nH]c2c1	-7%&6%
CCOc1ccccc1NC(=O)CSc1nnc2ccc(-c3ccncc3)nn12	-6%
CSc1ccccc1C(=O)Nc1ccccc1C(=O)N1CCCC1	5%
Cc1nnc(NC(=O)CSc2nc3ccccc3[nH]2)s1	13%
CNC(=O)CSc1nnc(-c2ccco2)n1-c1ccc(C)cc1	8%
C=CCSc1nnc(-c2ccncc2)n1-c1ccc(OCC)cc1	-19%
N=c1sccn1CC(=O)Nc1ccccc1Sc1ccccc1	-10%
Cc1ccc(NC(=O)/C(C#N)=C/c2ccc(Sc3nc(C)cc(C)n3)o2)cc1	-3%
CCC/C(=N\NC(=O)c1ccc(CSc2nncn2C)cc1)c1ccccc1	-19%
Cn1cnnc1SCC(=O)Nc1ccc2c(c1)CCC2	11%

Compound activity deposited in PubChem BioAssay by National Center for Advancing Translational Sciences (NCATS).
